# SARS PLP yeast – blocks SARS-CoV papain-like protease in a yeast assay; S. cerevisiae expressing SARS-CoV PLpro, growth rescue; control for the full effect not named in the record; 330,000 tested, 0.19% active; AID 485353; Potency, µM (top dose mostly 32.9 µM), for inactives: top-dose activity, positive = growth rescue; active means well fitted rising curve with a large enough effect; inconclusive means small, poorly fitted or top-dose-only effect; inactive means no such curve, though single readings can be large or run the other way; further: 0% is about no effect; nearly all actives have a fitted effect of over 55% in size; growth read by luminescence after 48 h
# MARV entry inh – inhibitors of Marburg virus binding or cell entry; Marburg virus pseudotyped entry inhibition, cell reporter; control for the full effect not named in the record; about a third of the inactives were read at about 46 µM; Potency, µM (series often up to 37.8 µM), for inactives: at the top dose activity change, negative = inhibition, actives largely listed as inhibitors; 300,000 tested, 1.8% active; active = well fitted inhibition curve with a large enough effect; inconclusive = small, poorly fitted or top-dose-only effect, or effect the other way; inactive = flat fitted curve, though single readings scatter; tested in HEK293 cells; about a fifth of its hits are not listed in these tables; further: on the % scale 0 is the no-effect control and ±100 the full control effect; luciferase read-out
# NS1 function inh – influenza NS1 inhibition. S. cerevisiae slowed by influenza A NS1, growth recovery by OD600. Potency, µM (series often up to 46.1 µM), inactives show at the highest dose activity, positive = more growth. 270,000 tested, 0.4% active. AID 2326; active means well fitted rising curve with a large enough effect; inconclusive means small, poorly fitted or top-dose-only effect; inactive means no such curve, though single readings can be large or run the other way; further: nearly all actives have a fitted effect of over 50% in size
#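 In this qHTS, NS1 from influenza A is expressed in budding yeast, where it slows growth. Cells are switched from glucose to 2% galactose medium (pH 6.0, -URA), treated with compound, and growth recovery is read at OD600.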
# Cruzain inh noDet – inhibitors of Trypanosoma cruzi cruzain without detergent; P25779; purified cruzain, Z-FR-AMC fluorescence, no detergent; Potency, µM, for the others: max response, negative = inhibition, hits mostly inhibitors; 200,000 tested, 2.3% active;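 further: plate controls were enzyme without inhibitor for no effect and buffer without enzyme for full effect; nearly all actives have a fitted effect of over 40% in size; top concentration of the series not given in the record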
# Target sequence (P25779 123-467 limits assumed): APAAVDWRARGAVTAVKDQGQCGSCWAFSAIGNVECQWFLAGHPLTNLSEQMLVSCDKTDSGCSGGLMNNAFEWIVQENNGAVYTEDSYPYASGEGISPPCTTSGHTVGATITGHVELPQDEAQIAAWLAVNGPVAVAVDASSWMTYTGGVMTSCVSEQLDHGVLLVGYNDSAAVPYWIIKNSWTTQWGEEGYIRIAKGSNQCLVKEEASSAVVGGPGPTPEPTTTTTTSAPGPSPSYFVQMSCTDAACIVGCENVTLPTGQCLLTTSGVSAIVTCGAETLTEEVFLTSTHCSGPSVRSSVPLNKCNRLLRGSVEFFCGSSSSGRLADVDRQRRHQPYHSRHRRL
#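 Purified cruzain at 1.5 nM, pre-incubated 15 min with compound at room temperature in 100 mM sodium acetate pH 5.5, 5 mM DTT, 0.00005% Triton X-100. Reaction started with 2 uM Z-FR-AMC; AMC fluorescence increase over 60 s gives rate.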
# Lassa entry inh – blocks Lassa virus binding to or entry into cells. Lassa virus pseudotype entry inhibition, cell reporter; control for the full effect not named in the record. Potency, µM (doses to about 37.9 µM), for inactives: at the highest dose activity change, negative = inhibition, hits mostly inhibitors. 300,000 tested, 1.2% active; active means well fitted inhibition curve with a large enough effect; inconclusive means small, poorly fitted or top-dose-only effect, or effect the other way; inactive means flat fitted curve, though single readings scatter; tested in HEK293 cells; further: on the % scale 0 is the no-effect control and ±100 the full control effect; nearly all actives have a fitted effect of over 50% in size; luciferase read-out
# 2A StopGo – lowers the luciferase signal of an FMDV 2A StopGo reporter. human cells with a luciferase reporter of 2A StopGo recoding; control for the full effect not named in the record. Potency, µM (doses to about 57.9 µM), inactives show at the highest dose signal change, negative = less light. 410,000 tested, 1.2% active; active = well fitted falling curve with a large enough effect; inconclusive = small, poorly fitted or top-dose-only effect; inactive = no such curve, though single readings can be large or run the other way; tested in HEK293T cells; further: on the % scale 0 is the no-effect control and ±100 the full control effect; nearly all actives have a fitted effect of over 45% in size; luciferase light after 4 h
# Cruzain inh Det – cruzain (T. cruzi) inhibition with detergent. P25779. purified cruzain, Z-FR-AMC fluorescence, 0.01% Triton. Potency, µM, without a hit: max response, negative = inhibition, actives largely listed as inhibitors. 200,000 tested, 0.43% active. AID 1478;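 further: plate controls were neutral wells for no effect and buffer without enzyme for full effect; nearly all actives have a fitted effect of over 40% in size; top concentration of the series not given in the record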
#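 Enzyme 1.5 nM, Z-FR-AMC 2 uM, NaOAc 100 mM pH 5.5, DTT 5 mM, Triton X-100 0.01%; 15 min RT compound preincubation; kinetic ex360/em450, 60 s delta.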
# RE007 growth inh – less growth of the S. pombe RE007 Vpr strain. S. pombe RE007 Vpr strain, BacTiter-Glo ATP luminescence, 24 h; control for the full effect not named in the record. Potency, µM (titrated, usually from 92.2 µM), for the others: top-dose activity change, negative = less growth. 360,000 tested, 0.21% active. AID 651644; active = well fitted falling curve with a large enough effect; inconclusive = small, poorly fitted or top-dose-only effect; inactive = no such curve, though single readings can be large or run the other way;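 further: on the % scale 0 is the no-effect control and ±100 the full control effect; nearly all actives have a fitted effect of over 50% in size; the assay follows cell death caused by Vpr and the record does not say whether a fall means rescue or toxicity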
#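 Fission yeast strain RE007, carrying one chromosomally integrated HIV-1 vpr copy, was seeded at OD 0.01 in PMG+AL medium with 23 nL pinned compound. After 24 h at 30 °C and 99% humidity, viability was read by BacTiter-Glo luminescence.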
# * = called active by the depositor; ? = inconclusive; . = no result given; & = joins results of further samples; [ ] = another dose, or the depositor's remark. Unless noted, the call rests on the fitted dose curve; in most records, active means well fitted curve in the direction sought with a large enough effect; inconclusive means small, poorly fitted or top-dose-only effect, or another doubt; inactive means no such curve, though single readings can be large; an effect the other way counts as inactive or inconclusive. Potency means the concentration at half of the fitted maximal effect. An unsorted share of the library (roughly 4.5% active in at least one column).
SMILES,SARS PLP yeast,MARV entry inh,NS1 function inh,Cruzain inh noDet,Lassa entry inh,2A StopGo,Cruzain inh Det,RE007 growth inh
Cc1ccccc1COC(=O)c1ccc(-c2nnn(Cc3ccccc3F)n2)cc1,.,2%[46.1 µM],.,1%,14%[46.1 µM],-9%,-0.6%,.
CCCc1ccc(NC(=O)C2CCN(c3cnccn3)CC2)cc1,-4%,1%&0%[46.1 µM],1%,28%,1%&-6%[46.1 µM],-16%&-29%,-9.1%,-12%
C[C@@H](N)Cc1cnc[nH]1,.,?,-5%,-3%&12%,?,-1%&-4%&-14%,-1.2%&1.6%,3%[18.4 µM]
COC(=O)C1=C(C)N(c2cc(C)cc(C)c2)/C(=C/c2ccco2)C1=O,-3%,?,.,.,?,?,.,4%
Cc1cc(C)c(NC(=O)CS(=O)CC(=O)NCCN2CCCCCC2)c(C)c1 (stereo not given),7%,0%[46.1 µM],5%,.,15%[46.1 µM],35%[activator],.,-1%
CCOC(=O)c1cc(-c2ccccc2)n(-c2cccc(C(=O)NC(C)CC)c2)c1C (stereo not given),.,.,.,-10%,-16%[46.1 µM],-7%,-4.9%,.
CCCOc1ccc(C(=O)CCNc2ccc(C)c(Cl)c2)cc1,-6%,13%,8%,?,10%,.,1.1%,15%
CC(=O)Nc1ccc(-n2nnnc2SCC(=O)NC2CCCC2)cc1,0%,-17%[46.1 µM],5%,.,-27%[46.1 µM],-7%,.,5%
COC(Cn1c2c(c3cc(C)ccc31)CCCC2NCc1ccccc1)OC (stereo not given),-1%,.,-2%,.,.,-20%,.,-4%
Cc1ccccc1CSc1nc2c(c(=O)[nH]1)CCCC2,-4%,.,0%,-2%,.,.,3.5%,.
CC(=O)Nc1ccc(S(=O)(=O)NC2(C(F)(F)F)C(=O)Nc3c2c(=O)n(C)c(=O)n3C)cc1 (stereo not given),-8%,-10%,12%,3%,-11%,-11%,-9.2%,-7%
COc1cccc(C(=O)Nc2c3c(nn2-c2ccc([N+](=O)[O-])cc2)CS(=O)(=O)C3)c1,-5%,.,-8%,.,.,-7%,.,13%
Cc1cc(C)c(C#N)c(OCC(=O)c2ccc(Br)cc2)n1,-3%,7%,-9%,7%,4%,7%,-5.9%,12%
CCC(C)c1ccc(NC(=O)CC(C)=O)cc1 (stereo not given),-2%,?,0%,-8%,-11%,27%,-8.8%,12%
CCOc1cc(C(=O)Nc2ccc(C(=O)NCCN(CC)CC)cc2)ccc1OCC(=O)N1CCOCC1,2%,-12%[46.1 µM],.,.,10%,8%,.,-9%
COCCCN=Cc1c(-c2ccccc2)[nH]n(-c2nc3ccccc3s2)c1=O,-1%,?,-42%,.,-24%,-19%,.,-15%
CC(C)(C)c1ccc(NC(=O)N2CCN(c3ccc([N+](=O)[O-])cn3)CC2)cc1,1%,7%[14.2 µM],-1%,.,?,22µM*,.,-12%
COc1cc2c(cc1OC)n(CC(=O)c1ccc(C)cc1C)c(=O)n1nc(CCn3nc(C)cc3C)nc21,.,.,.,1%,4%[46.1 µM],-2%,1.3%,.
CSCCC(NS(=O)(=O)c1ccc(C)cc1)C(=O)NNC(=O)c1csc(N2CCOCC2)n1 (stereo not given),-11%,.,12%,.,.,-3%,.,3%
O=C(CCN1CCN(c2ccccc2F)CC1)c1ccc(Br)cc1,-16%,1%,-95%,?,-3%,-23%,14µM*,32µM*
CCn1c(CNc2cccc(C(F)(F)F)c2)n[nH]c1=S,1%,.,2%,.,.,-25%,.,2%
Cc1ccccc1NS(=O)(=O)c1ccc2[nH]c(=O)[nH]c2c1,1%,1%[46.1 µM],2%,.,-14%,10%,.,1%
COn1c(SCc2ccc(C)cc2C)nc2ccccc2c1=O,-5%,-34%,0%,-16%,?,?,-4.2%,12%
CCOc1ccc(C(=O)Nc2ccc3oc(-c4cccc5ccccc45)nc3c2)cc1,.,.,.,20%,1%[46.1 µM],-13%,0.6%,.
Cc1cnc2cc(Cl)ccc2c1SCC(=O)O,1%,.,2%&4%,-3%,.,11%,5.0%,9%
O=C(CSc1n[nH]c(-c2ccco2)n1)Nc1ccccc1F,-1%,6%[46.1 µM],-1%,.,4%[46.1 µM],8%,.,11%
CCCC(C)c1nnc(NC(=O)C2CC(=O)N(CCc3ccc(F)cc3)C2)s1 (stereo not given),0%,-2%[46.1 µM],29%,.,10%[46.1 µM],2%,.,10%
O=C(CSc1nnc(-c2cccs2)n1CC1CCCO1)N1CCCC1 (stereo not given),-1%,1%[46.1 µM],-3%,.,4%,4%,.,6%
Cc1cccc(C(=O)Nc2cccc(C(=O)OCc3cc(=O)n4ccsc4n3)c2)c1,.,.,.,-3%,16%[46.1 µM],14%,0.7%,.
CCCn1nc(C(=O)Nc2cc(S(=O)(=O)Nc3ccc(OC)cc3)ccc2O)c2ccccc2c1=O,9%,?,.,.,-27%,5%,.,-1%
C/C(O)=C(\C#N)P(=O)(c1ccccc1)c1ccccc1,1%,-17%,4%,.,25%,0%,.,-4%
Cc1ccc(C(=O)NCCc2cccc(Cl)c2)cc1[N+](=O)[O-],-20%,-54%,-28%,6%,21%,14%,-5.5%,-10%
O=C(CCc1nc(-c2ccccc2F)no1)N1CCC2(CC1)OCCO2,-6%,-4%,-10%,2%,3%,11%,5.2%,4%
Cc1ccc(S(=O)(=O)Cc2ccc(C(=O)OCc3ccccc3)cc2)cc1,5%,-19%[46.1 µM],26%,5%,-29%,?,-0.4%,-6%
OCCn1c(C(F)(F)F)nc2ccccc21,-15%,18%,3%,-14%,25%,-24%,-0.4%,0%
CN1CCN(C(=O)CSc2nnc(COc3ccccc3)o2)CC1,1%,6%[46.1 µM],8%,.,.,9%,.,-16%
Cc1nn(C2CCOC(C)(C)C2)c2c1C(c1ccc3c(c1)OCO3)SCC(=O)N2 (stereo not given),-8%,-15%,9%,8%,-6%,-19%,4.0%,-2%
Cc1ccc(S(=O)(=O)n2c(N)nc3ccccc32)cc1,-3%,-3%[46.1 µM],3%,.,-26%[46.1 µM],-7%,.,-6%
Cc1ccc(-c2nnc(SCC(=O)NCCC(C)C)nc2-c2ccc(C)cc2)cc1,.,.,.,-21%,18%[46.1 µM],-20%,-5.3%,.
CCOc1ccc(N2C(=O)CC(NCCNc3ccc(C(=O)c4cccs4)cc3)C2=O)cc1 (stereo not given),-3%,.,7%,.,.,-24%,.,-28%
O=C(O)CCC(=O)Nc1ccc(-c2nc3ccc(C(=O)c4ccccc4)cc3[nH]2)cc1,2%,4%,-9%,.,17%,0%,.,14%
COC(=O)Nc1sc2c(c1C(N)=O)CCCCCC2,-5%,2%,-106%,-4%,?,-12%,2.4%,-11%
COc1ccccc1NC(=O)Cn1nc(C(F)(F)F)c2c1CCCC2,-14%,12%,-51%,0%,-24%,-23%,-7.2%,9%
O=C(NCc1ccccc1)c1ccc(NC(=O)N2CCSc3ncccc32)cc1,.,.,.,-15%,6%[46.1 µM],-11%,-12%,.
O=C1c2ccccc2C(Nc2ccc(Cl)cn2)N1c1cccnc1 (stereo not given),-3%,.,-28%,-4%,.,-28%,1.0%,24%
CCC(C)NC(=O)C1=CC(c2ccc3c(c2)OCO3)=NS(=O)(=O)N1C (stereo not given),.,?,.,0%,0%[46.1 µM],-6%,-5.7%,.
O=C(O)CCC/C=C\C[C@@H]1[C@@H](/C=C/[C@@H](O)COc2cccc(Cl)c2)[C@H](O)C[C@@H]1O,5%,5%,-3%,?,3%,-7%,-1.0%&4.2%&-4.4%,10%
CCN1CCN(C(=O)c2ccccc2N(Cc2ccccc2)S(C)(=O)=O)CC1,-2%,11%,-15%,11%,-7%,0%,-0.2%,9%
CC(C)C(NC(=O)C1CCCCC1)C(=O)N1CCN(c2ccc(F)cc2)CC1 (stereo not given),-8%,-6%,-15%,-10%,3%,3%,-5.0%,6%
COc1ccccc1NC(=O)c1ccccc1NS(C)(=O)=O,-6%,0%,-54%,-9%,12%,-13%,2.6%,?
COc1cc(NC(=S)NC(=O)C(C)C)ccc1NC(=O)c1cc2ccccc2o1,0%,.,-5%,.,.,16%,.,-19%
Cc1ccc(S(=O)(=O)Nc2cnc3ccccc3c2)cc1,-1%,.,0%,.,.,24%,.,5%
O=C(CCN1C(=O)c2ccccc2S1(=O)=O)Nc1ccc(F)cc1F,2%,-1%,3%,.,0%,5%,.,-19%
Nc1nonc1-n1nnc(C(=O)N/N=C/c2ccncc2)c1-c1cccs1,?,2%[46.1 µM],0%,.,5%[46.1 µM],26%,.,-8%
COc1cccc(NC(=S)NC(=O)/C=C/c2ccc(F)cc2)c1,-1%,.,0%,.,.,-9%,.,-12%
COc1ccc(-n2ccnc2SCC(=O)NCc2ccco2)c(OC)c1,3%,18%,.,.,-6%,-10%,.,1%
Cc1ccc(SC2CC(=O)N(c3ccc4c(c3)OCCO4)C2=O)cc1 (stereo not given),-5%,-13%[46.1 µM],-57%,.,-4%[46.1 µM],-8%,.,?
COc1ccc2c(c1)C(=O)CCC2c1ccccc1 (stereo not given),-5%,-10%[46.1 µM],-40%,.,-13%[46.1 µM],-1%,.,11%
O=C(O)c1ccccc1C(=O)N1CC=C(c2ccccc2)CC1,-9%,11%,-2%,-2%,0%,-22%,-3.6%,-4%
O=C(CCSc1ccc(Cl)cc1)NC1CCCCC1,-4%,?,?,-2%,6%,25%,6.5%,-8%
# Continuation.
SMILES,SARS PLP yeast,MARV entry inh,NS1 function inh,Cruzain inh noDet,Lassa entry inh,2A StopGo,Cruzain inh Det,RE007 growth inh
COc1ccc(CN(CC(=O)NC2CCCCC2)C(=O)CCCC(=O)Nc2ccccn2)cc1,0%,.,-3%,.,.,3%,.,5%
Cc1ccc(S(=O)(=O)CC(=O)N2CCN(c3ccc([N+](=O)[O-])cc3)CC2)cc1,-1%,?,.,.,-30%[46.1 µM],-22%,.,3%
Cc1nc(-c2cccc(NS(C)(=O)=O)c2)cs1,5%,12%,0%,-13%,6%,9%,3.8%,10%
Cc1ccc(NC(=O)CSc2nnc(CNC(=O)c3ccco3)n2C)cc1C,2%,-5%,.,.,11%,-10%,.,-7%

# Bioassay records from PubChem BioAssay.
